Source: PubChem BioAssay (several laboratories)
GALR2 agonist: activates the human galanin receptor 2; AID 803; 0.48% of 140,000 active; activation, %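 (tested at 5 µM)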; GALR2-expressing cells, agonist activation read-out; O43603;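 active = above mean plus 3 SD of all compounds, about 5% in these data, not always enough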;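 note: 0% = vehicle buffer wells and 100% = reference agonist at full effect; tested in CHO reporter cells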
Target sequence (O43603 whole entry, looked up): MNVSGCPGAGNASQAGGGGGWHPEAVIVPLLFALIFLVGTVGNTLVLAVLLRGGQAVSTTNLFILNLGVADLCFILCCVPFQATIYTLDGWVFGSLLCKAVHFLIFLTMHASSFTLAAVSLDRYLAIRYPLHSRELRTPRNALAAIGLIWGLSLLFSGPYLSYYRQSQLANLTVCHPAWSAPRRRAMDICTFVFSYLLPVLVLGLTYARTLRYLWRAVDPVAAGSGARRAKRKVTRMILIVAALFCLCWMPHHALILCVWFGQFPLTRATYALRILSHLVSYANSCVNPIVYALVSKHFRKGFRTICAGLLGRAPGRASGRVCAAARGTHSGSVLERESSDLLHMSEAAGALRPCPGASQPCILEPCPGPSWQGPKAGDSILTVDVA
PKD1 kinase inh: inhibitors of human PKD1 kinase. PKD1 kinase fluorescence polarization assay. inhibition, %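 (about 10 µM by stock and volumes)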. 0.056% of 200,000 active. AID 797;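 active = inhibition of 50% or more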;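 note: controls were vehicle for no effect and a reference inhibitor for full effect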
HSV replic up: increases HSV replication in cells; maximum fold increase; HSV replication augmentation in cells, fold increase; 0.005% of 220,000 active; AID 1956;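 active = peak rise of 1.5-fold or more in the series; tested in PC3 cells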;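 note: first round at 10 µM; read as green reporter fluorescence; hits show the peak of a series up to 25 µM; 1 = signal of infected wells without compound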
RGS16-Gao: regulators of human RGS16-Galphao interaction | O15492+P09471 | bead-based flow cytometry RGS16-Galphao binding, fluorescence; actives lie on both sides | binding response (% of control), % at 10 µM | 0.38% of 220,000 active | AID 1441;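 active = below 25% or above 175%, edge rows of some plates excepted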;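 note: Galphao activated by GDP with aluminum fluoride before binding; 100% = wells without compound and 0% = beads without RGS; some results beyond the cut were filed as inactive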
Target sequence (O15492 whole entry, looked up): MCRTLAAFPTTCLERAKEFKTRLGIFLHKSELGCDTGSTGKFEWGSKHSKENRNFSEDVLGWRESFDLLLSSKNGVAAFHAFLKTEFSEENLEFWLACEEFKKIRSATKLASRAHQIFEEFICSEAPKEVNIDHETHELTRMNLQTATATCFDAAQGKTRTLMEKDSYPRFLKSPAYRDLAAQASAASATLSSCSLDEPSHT
Target sequence (P09471 whole entry, looked up): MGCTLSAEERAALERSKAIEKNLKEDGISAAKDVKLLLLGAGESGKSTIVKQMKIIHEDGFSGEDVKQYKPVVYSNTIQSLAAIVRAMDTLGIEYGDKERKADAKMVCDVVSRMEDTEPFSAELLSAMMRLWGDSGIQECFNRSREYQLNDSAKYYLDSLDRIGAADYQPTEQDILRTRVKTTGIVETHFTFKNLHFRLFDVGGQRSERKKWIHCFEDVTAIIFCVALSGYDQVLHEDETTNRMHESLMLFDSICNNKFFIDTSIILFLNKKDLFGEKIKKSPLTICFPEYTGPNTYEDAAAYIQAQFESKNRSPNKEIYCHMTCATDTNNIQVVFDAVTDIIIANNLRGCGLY
Insulin prom inh: TRM-6 insulin promoter activity inhibition. TRM-6 cells (human fetal islet line), insulin promoter-eGFP reporter, imaging; reporter expression induced with tamoxifen. inhibition, % at 2 µM. 0.9% of 130,000 active;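 active = inhibition above the mean plus 3 SD, with well images judged a real hit on visual review, cut at about 60% in these data, passing the limit was not always enough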
Insulin prom inh cell count: second read-out of Insulin prom inh, no call of its own (marks repeat the call); normalized cell count, %; measured here: cell count, toxicity; reference of the scale not given here;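 cells exposed to compound for 48 h; stained nuclei by imaging scaled within each plate; lower means fewer cells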
HSV replic up primary fold: recorded beside HSV replic up, whose call it bears; fold increase; compound at 10 µM; measured here: primary screen fold increase 10 uM; tested in PC3 cells;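 GFP signal in the first replicate; 1 = infected wells without compound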
Active calls of the source: *; i = inactive; x = no result given. The order is random. About 1.3% of those tested had a hit in this group.

SMILES	GALR2 agonist	PKD1 kinase inh	HSV replic up	HSV replic up primary fold	RGS16-Gao	Insulin prom inh	Insulin prom inh cell count
COc1cccc(NC(=O)CC(c2ccc(OC(C)C)cc2)c2ccccc2OC)c1 (centres undefined)	3.1	-11.5	i	0.98	103.4	-13.3	161.1
O=C(c1ccc2c(c1)N(Cc1ccccc1)CCS2)N1CCCCC1	-1.9	-8.2	i	0.88	102.0	x	x
COc1ccc(CCN(Cc2ccccn2)C(=S)Nc2ccccc2F)cc1OC	x	-2.3	i	0.94	98.2	20.0	78.1
CCOC(=O)c1sc(NC(=O)c2cccs2)cc1C	-1.5	-1.3	i	0.84	98.1	x	x
CCNC(=O)NC(=O)C(C)OC(=O)C(C)(C)Oc1ccc(Cl)cc1 (centres undefined)	x	14.0	i	1.09	98.8	x	x
CCOc1ccc2nc(N/C(N)=N/C(=S)Nc3ccc(OC)cc3)nc(C)c2c1	x	-3.9	i	0.79	100.1	x	x
Cc1ccccc1C(=O)c1cccn1CC(=O)NCc1ccc2c(c1)OCO2	-2.8	-5.3	i	0.83	102.4	-46.7	96.6
CC(C)N1CCN(Cc2cnc(N3CCCC3)s2)CC1CCO (centres undefined)	x	-4.4	i	0.98	118.6	x	x
Cc1cc(C)n(-c2nnc(C)n2NS(=O)(=O)c2ccc(F)cc2)n1	-1.9	-1.2	i	0.67	104.9	42.9	122.3
CN(C)S(=O)(=O)c1ccc(NC(=S)NC(=O)c2ccc(Br)o2)cc1	x	0.6	i	0.99	112.2	6.2	127.7
C=CCn1c(SCC(=O)NCc2ccc3c(c2)OCO3)nc2scc(-c3ccc(F)cc3)c2c1=O	-1.8	-3.2	i	0.95	105.5	x	x
O=C(COc1ccccc1)NCc1cccs1	-4.1	-9.7	i	1.03	102.0	8.8	263.6

An excerpt from above in order of formula weight, rising:
SMILES	GALR2 agonist	PKD1 kinase inh	HSV replic up	HSV replic up primary fold	RGS16-Gao	Insulin prom inh	Insulin prom inh cell count
O=C(c1ccc2c(c1)N(Cc1ccccc1)CCS2)N1CCCCC1	-1.9	-8.2	i	0.88	102.0	x	x
Cc1ccccc1C(=O)c1cccn1CC(=O)NCc1ccc2c(c1)OCO2	-2.8	-5.3	i	0.83	102.4	-46.7	96.6
COc1cccc(NC(=O)CC(c2ccc(OC(C)C)cc2)c2ccccc2OC)c1 (centres undefined)	3.1	-11.5	i	0.98	103.4	-13.3	161.1

Remaining list, next part.
SMILES	GALR2 agonist	PKD1 kinase inh	HSV replic up	HSV replic up primary fold	RGS16-Gao	Insulin prom inh	Insulin prom inh cell count
CC(C)CN(CC(C)C)C(=O)Nc1ccccc1F	x	-2.5	i	1.01	101.4	-177.8	89.4
CCOC(=O)C1(CCSC)NC(c2ccco2)C2C(=O)N(C)C(=O)C21 (centres undefined)	-1.4	5.6	i	1	102.8	x	x
Cc1cc(N2CCN(C(=O)c3ccco3)CC2)n2nc(-c3cccc(F)c3)cc2n1	0.2	-0.2	i	0.98	104.4	37.5	97.8
Cc1nn(C)c(C)c1Nc1ccc(N2C(=O)C3CC=CCC3C2=O)cc1[N+](=O)[O-] (centres undefined)	x	3.1	i	0.95	99.1	x	x
O=C(/C=C/c1ccccc1F)c1cccc([N+](=O)[O-])c1	-0.5	6.9	i	0.77	108.8	50.0	124.7
CCC(C)NC(=O)c1cc(OC)c(OC)c(OC)c1 (centres undefined)	-0.6	-6.7	i	0.97	96.4	x	x
O=C(CCCN1CCC(c2ccccc2)C1)c1ccc2c(c1)OCCO2 (centres undefined)	-0.8	0.5	i	0.99	105.6	-76.9	63.6
Cc1ccc(-c2noc(CCC(=O)NCCN3CCN(Cc4ccccc4)CC3)n2)cc1	-2.2	-19.1	i	0.81	101.2	-216.3	106.2
CCc1ccccc1NC(=O)c1cnc2scc(C)n2c1=O	-3.9	2.6	i	0.94	109.1	x	x
Cc1ccc(C(C(=O)NC2CCCC2)N(Cc2ccc3c(c2)OCO3)C(=O)Cc2cccs2)cc1 (centres undefined)	-0.9	-1.3	i	0.93	110.0	-81.4	140.2
CN1CCN(C(=S)C(=O)Nc2ccccc2)CC1	x	-3.0	i	1	102.8	x	x
Cc1cc(C)c2c(N)c(C(=O)c3ccccc3Cl)sc2n1	x	x	i	0.78	84.8	x	x
CCOC(=O)c1nnc(-c2ccc(C)cc2)nc1Oc1ccccc1Cl	-1.7	-8.3	i	0.98	103.8	21.9	63.5
O=C(CSc1nc2ccccc2c(=O)n1-c1ccc(Cl)cc1)c1ccco1	-4.6	-10.3	i	0.83	105.9	-14.3	82.7
O=C(c1ccc(COCC(F)(F)F)o1)N1CCCCCC1	0.4	-0.5	i	0.93	102.0	38.7	168.2
COC(=O)[C@@H]1C[C@H]2CC[C@H](O)C[C@H]2N1Cc1ccc(-c2ccccc2)cc1	x	x	i	0.92	88.7	x	x
CCOc1ccc(NC(=O)Cn2nnc(C(=O)NCc3ccccc3OC)c2N)cc1	-0.7	-13.3	x	x	109.4	33.3	156.3
C=CCn1c(SCC)nc(O)cc1=O	-3.2	-2.1	i	0.86	102.3	35.7	149.3
Cc1cc(=O)c2c(O)c(O)ccc2o1	1.4	-3.8	i	1	93.5	56.2	72.6
CCOC(=O)c1c(NC(=O)C(=O)N/N=C/c2ccccc2O)sc2c1CCCCC2	2.2	-4.1	i	1.01	101.6	-38.8	105.1
Cc1noc(NS(=O)(=O)c2ccc(N/C=C\C(=O)c3ccc(F)cc3)cc2)c1C	x	-3.9	i	0.87	102.3	-17.6	74.8
C[C@@H]1CC=C[C@H]2[C@H]1C(=O)N(Cc1ccccc1)[C@H]2c1ccc(F)c(/C=C/c2ccccc2)c1	x	x	i	0.92	99.9	x	x
O=C(Nc1nc(-c2ccccc2)nc2ccccc12)c1ccc(F)cc1	x	-0.2	i	1.03	124.7	x	x
COc1ccc(C(CNC(=O)c2ccc3c(c2)C(=O)N(CCC(C)C)C3=O)N2CCOCC2)cc1 (centres undefined)	-1.1	-0.5	i	0.76	108.1	x	x
O=C(CC1SC(=Nc2ccc(OC(F)F)cc2)N(CCN2CCOCC2)C1=O)Nc1ccc(F)cc1F (centres undefined)	x	-2.5	i	0.96	99.2	x	x
CCn1cc(C(=O)NCc2ccco2)c(=O)c2cc(S(=O)(=O)N3CCC(C)CC3)ccc21	-1.5	-0.1	i	0.83	87.8	x	x
COc1ccc(CNC(=O)COC(=O)c2c[nH]c(=O)[nH]c2=O)cc1OC	-1.7	-6.8	i	0.92	102.1	x	x
O=C(NCc1ccccn1)C1CCN(S(=O)(=O)c2ccccc2)CC1	-2.4	4.1	i	1.01	97.2	0.0	69.2
Cc1ccc2cc(CN(CC3CCCO3)S(=O)(=O)c3ccccc3)c3nnnn3c2c1 (centres undefined)	-0.1	4.7	i	0.85	104.8	18.8	115.2
Cc1cc(C)nc(NS(=O)(=O)c2ccc(N3Cc4ccccc4C3=O)cc2)n1	0.3	-1.9	i	0.99	105.0	50.0	126.2
CC1CCN(CC(O)COc2ccc(F)cc2)CC1 (centres undefined)	-3.1	-4.5	i	0.82	100.7	x	x
Cc1cc(C)nc(N2CCC(C(=O)NCCc3ccc(F)cc3)CC2)n1	-1.8	-13.8	x	x	101.0	25.0	95.6
CCC1CCCCN1C(=O)CSc1nnc(-c2ccc(Cl)s2)o1 (centres undefined)	-0.8	1.2	i	0.94	105.2	8.3	140.7
CS(=O)(=O)N1CCC(C(=O)N2CCN(c3ccccc3)CC2)CC1	x	-7.4	i	0.94	103.6	-68.8	135.4
O=C(NC(CSSCC(NC(=O)c1ccccc1)C(=O)O)C(=O)O)c1ccccc1 (centres undefined)	x	8.8	i	0.67	103.5	x	x
O=C(COC(=O)c1ccc(Cl)c(S(=O)(=O)N2CCCCC2)c1)NCC1CCCO1 (centres undefined)	x	4.4	i	1.13	96.5	x	x
COc1ccccc1OCC(=O)NNC(=O)Nc1ccc(Cl)cc1	x	1.7	i	0.6	89.5	x	x
N=C(N)SCC1=CCS(=O)(=O)C1	x	x	i	1.03	97.1	x	x
Cc1c(Cc2ccccc2)c(=O)oc2cc(OCC(=O)c3ccccc3)ccc12	-0.2	-15.1	i	1.04	103.1	-11.1	91.3
CCn1cc(C(=O)N2CCOCC2)c(=O)c2cc(S(=O)(=O)N(C)C)ccc21	-2.0	-3.2	i	0.91	99.7	x	x
C/C(=N\NC(=O)c1ccc(Cn2cc([N+](=O)[O-])cn2)o1)c1cccc(NC(=O)C(C)C)c1	0.2	-1.6	i	0.72	107.2	15.4	149.4
CN(C)S(=O)(=O)c1ccc(N)c([N+](=O)[O-])c1	x	x	i	0.98	97.3	x	x
COc1cc(O)c(C(CCN2CCOCC2)c2cc(OC)c(OC)c(OC)c2)c(OC)c1 (centres undefined)	x	x	i	0.72	100.5	x	x
C/C=C/C(=O)OCC(=O)Nc1cc(OC)c([N+](=O)[O-])cc1C	x	3.6	i	0.9	90.7	x	x
CC1=CC(=O)C=C(C)C1=NOc1ccccc1[N+](=O)[O-]	0.3	-1.6	i	0.98	99.2	14.3	55.4
COc1cc(OC)cc(C(=O)NCc2nc(-c3ccccc3)no2)c1	0.0	-2.4	i	0.8	99.8	2.6	158.9
COc1ccc(-c2nnc(SCC(=O)Nc3cc(C)on3)o2)cc1	x	4.5	i	0.82	57.2	25.0	68.7
N/C(=N\S(=O)(=O)c1cc(C(F)(F)F)cc(C(F)(F)F)c1)c1ccc(Cl)cc1	x	x	i	0.9	94.5	x	x
O=C(CSc1nc(-c2ccco2)cc(C(F)(F)F)n1)Nc1ccc2c(c1)CCC2	-2.7	-2.6	i	0.54	115.5	6.7	116.1
O=C(Nc1cccnc1)c1cc(F)cc(F)c1	-2.9	0.5	i	0.96	112.8	61.5	105.0
Cc1ccc(-n2c(C3CC3c3ccc(Cl)cc3)n[nH]c2=S)cc1 (centres undefined)	-0.8	-3.0	i	1.16	101.8	6.7	135.8
COc1ccc(S(=O)(=O)Nc2cccc(N(C)S(C)(=O)=O)c2)cc1C	0.3	-9.5	i	0.92	105.3	x	x
O=C(COc1ccc(S(=O)(=O)N2CCCC2)cc1)Nc1ccc2c(c1)OCCO2	x	0.9	i	1.1	102.8	x	x
CCOc1nc(Nc2ccc(OC)c(Cl)c2)nc(N2CCN(c3ccc(OC)cc3)CC2)n1	1.3	-6.4	i	1.06	100.7	-13.3	138.3
COc1ccc(N(CC(=O)Nc2cc(OC)ccc2OC)S(C)(=O)=O)cc1	-0.2	-6.2	i	0.78	97.9	x	x
Cc1ccc(CCN2C(=O)CCC2(C)C(=O)NCc2cccnc2)cc1 (centres undefined)	-1.6	1.5	i	0.58	104.3	12.7	160.4
COc1cccc(-n2nc(-c3ccnn3-c3ccccc3)c(=O)n(C)c2=O)c1	1.9	-9.1	i	1	106.6	-8.3	103.3
Oc1ccc(NC(=S)N=Nc2c(O)[nH]c3ccc(Br)cc23)cc1	x	-6.0	i	0.84	104.7	33.3	80.6
OCCN1CCN(CC(O)C(F)(F)F)CC1 (centres undefined)	x	3.5	i	0.96	88.4	25.0	116.4
O=C(N/N=C/c1cccc(F)c1)NC1CCCCC1	-0.9	-5.1	i	1.04	94.9	x	x

Quoted at random: three records from the list.
SMILES	GALR2 agonist	PKD1 kinase inh	HSV replic up	HSV replic up primary fold	RGS16-Gao	Insulin prom inh	Insulin prom inh cell count
Cc1c(Cc2ccccc2)c(=O)oc2cc(OCC(=O)c3ccccc3)ccc12	-0.2	-15.1	i	1.04	103.1	-11.1	91.3
CCOc1ccc2nc(N/C(N)=N/C(=S)Nc3ccc(OC)cc3)nc(C)c2c1	x	-3.9	i	0.79	100.1	x	x
CS(=O)(=O)N1CCC(C(=O)N2CCN(c3ccccc3)CC2)CC1	x	-7.4	i	0.94	103.6	-68.8	135.4

The list continues.
SMILES	GALR2 agonist	PKD1 kinase inh	HSV replic up	HSV replic up primary fold	RGS16-Gao	Insulin prom inh	Insulin prom inh cell count
O=C(NC1CCCCC1)c1sc(N2CCOCC2)nc1-c1ccccc1	-0.7	1.6	i	0.92	102.0	-39.3	139.5
COc1ccccc1NC(=O)CSc1nc2ccccc2cc1Cc1ccccc1	1.0	-0.1	x	x	74.3	-3.3	91.6
COc1ccccc1NC(=S)NC(=O)c1ccc(-c2ccc(Cl)cc2)o1	-1.3	11.6	i	1.27	62.1	-32.3	103.8
CCn1c(=O)c2c(nc3n2CC(C)CN3CCc2ccccc2)n(C)c1=O (centres undefined)	0.1	-12.3	i	1	104.2	58.3	84.8
O=C(N/N=C/c1ccc([N+](=O)[O-])o1)c1cc(-c2cccc(Br)c2)nc2ccccc12	-0.3	0.2	i	1.04	92.6	x	x
O=C(CN1CCC(C(=O)c2cccc(F)c2)CC1)NCc1cccs1	-1.3	-0.9	i	1.02	88.6	-57.1	75.3
O=C(/C=C/c1cccs1)c1ccc(N2CCOCC2)cc1	x	0.9	i	1.05	101.1	x	x
Cc1ccc(C)c(-n2c(CNC(=O)c3ccco3)nnc2SCC(=O)N2CCc3ccccc32)c1	0.8	-5.4	x	x	87.5	38.5	103.7
